TRPML1 ag: agonists of human TRPML1 channel; 410,000 tested, 0.12% active; TRPML1-expressing cells, Ca2+ dye fluorescence, FDSS; host cell line not named in the record; reference of the full effect not given here; Q9GZU1; AID 624414; activation, % (test concentration not listed); in the data active = activation above about 50%; inconclusive = about 30% to 50%; inactive = below about 30%; also: 0% is about no effect; the text of the record puts the active cut at 80%
Target sequence (Q9GZU1 whole entry, looked up): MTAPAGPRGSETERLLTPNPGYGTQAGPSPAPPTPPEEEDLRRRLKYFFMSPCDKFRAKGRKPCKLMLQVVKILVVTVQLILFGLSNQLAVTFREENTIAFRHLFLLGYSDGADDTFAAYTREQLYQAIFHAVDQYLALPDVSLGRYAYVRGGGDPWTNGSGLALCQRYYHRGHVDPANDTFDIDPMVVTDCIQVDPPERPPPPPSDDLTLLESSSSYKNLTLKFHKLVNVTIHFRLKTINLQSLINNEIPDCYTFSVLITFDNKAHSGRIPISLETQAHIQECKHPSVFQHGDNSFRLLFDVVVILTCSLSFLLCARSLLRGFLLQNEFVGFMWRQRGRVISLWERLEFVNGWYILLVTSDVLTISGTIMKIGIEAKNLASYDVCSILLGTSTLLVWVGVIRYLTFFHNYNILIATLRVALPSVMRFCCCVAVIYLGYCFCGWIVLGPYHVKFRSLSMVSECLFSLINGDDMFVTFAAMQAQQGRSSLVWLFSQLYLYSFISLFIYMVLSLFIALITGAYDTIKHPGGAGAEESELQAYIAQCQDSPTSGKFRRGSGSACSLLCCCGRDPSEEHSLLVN
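Tet-induced TRPML1-DL cells, 1,500 per well, cultured overnight, were loaded with a no-wash Ca2+ dye for 45–90 min. Calcium fluorescence was recorded on the FDSS for 110 s after compound addition, before the EC80 agonist (4 uM 54-4) was added.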
TRPML1 inh: human mucolipin-1 channel inhibition; TRPML1-inducible cells, Ca2+ dye fluorescence, FDSS; hits give low values; inhibition of EC80 agonist-evoked calcium signal; activity change, negative = inhibition, % (concentration not given with the values); AID 624415; 390,000 tested, 0.02% active; Q9GZU1; in the data active means activity change below about -50%; inconclusive means about -30% to -50%; inactive means above about -30%;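 also: stimulus is agonist 54-4 at its EC80 concentration; % is scaled to controls: 0 for no effect and ±100 for the full control effect; compound concentration not given in the record; the text of the record puts the active cut at -80%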
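TRPML1-DL cells, Tet-induced overnight (~16 h, 37 °C) at 1,500 cells/well, were loaded with Ca8 no-wash dye plus quencher for 45-90 min at room temperature. Compounds were pinned during FDSS kinetic reading; agonist 54-4 at EC80 (4 uM final) then added.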
PINK1 expr mod: changes PINK1 expression | PINK1 immunofluorescence, high-content cytometry, 24 h | Potency, µM (doses to about 76.6 µM), for inactives: at the top dose activation (PINK1 increase), usual class: activators | 410,000 tested, 0.2% active | AID 624263; active = well fitted activation curve with a large enough effect; inconclusive = small, poorly fitted or top-dose-only effect; inactive = flat fitted curve, though single readings scatter; cell line not stated here;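 also: potency is read from the fitted curve at half-maximal effect; % of control where 0% means no effect; nearly all actives have a fitted effect of over 65% in size; a mitochondrial uncoupler was the plate control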
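Decision-based qHTS: stable cells, 24 h exposure to five compound concentrations, CCCP as control. Fixed cells stained for PINK1 plus nuclear, mitochondrial and cell markers, cytometer read.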
ClpP mod: qHTS Assay for Activators of ClpP. Potency, µM (titrated, usually from 57.5 µM), for inactives: at the highest dose activity change, negative = active. purified B. subtilis ClpP, FRET peptide cleavage, 20 min. 340,000 tested, 1.9% active; active = well fitted falling curve with a large enough effect; inconclusive = small, poorly fitted or top-dose-only effect; inactive = no such curve, though single readings can be large or run the other way; also: potency is read from the fitted curve at half-maximal effect; the source files actives as falling curves though it sought activators and does not explain the sign; nearly all actives have a fitted effect of over 65% in size; many hits overshoot -100%
Target sequence (P80244 whole entry, looked up): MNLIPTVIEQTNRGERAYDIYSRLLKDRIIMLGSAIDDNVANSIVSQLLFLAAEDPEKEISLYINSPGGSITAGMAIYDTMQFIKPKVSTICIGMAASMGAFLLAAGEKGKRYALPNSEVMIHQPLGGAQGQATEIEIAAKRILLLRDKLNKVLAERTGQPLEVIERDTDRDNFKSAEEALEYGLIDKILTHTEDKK
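Buffer: 100 mM Tris/HCl pH8, 100 mM KCl, 0.05% low protease BSA, 2.5% glycerol, 0.01% Tween-20. ClpP 10 microg/mL final; 20 min RT; delta FRET normalized to ADEP and DMSO controls.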
Sfp inh: blocks B. subtilis Sfp PPTase activity | 310,000 tested, 3.5% active | Potency, µM, without a hit: max response, negative = inhibition, actives largely listed as inhibitors | Biochemical Sfp PPTase activity, qHTS | AID 1490 | Q9F4F7; active = well fitted inhibition curve with a large enough effect; inconclusive = small, poorly fitted or top-dose-only effect, or another doubt; inactive = no such curve, though single readings can be large or run the other way;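 also: the enzyme is Sfp with the accession as filed and its product quenches rhodamine fluorescence; potency is read from the fitted curve at half-maximal effect; 0% = enzyme reaction without inhibitor and -100% = no enzyme wells; top concentration of the series not given in the record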
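With Hepes-Na pH 7.6 buffer containing 10 mM MgCl2, Sfp (15 nM) modified BHQ-2-YbbR (12.5 uM) using rhodamine-CoA (5 uM). Two reads 30 minutes apart at 525/598 nm yielded each well's rate.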
TRPV1 potentiator: human TRPV1 potentiation. TRPV1-expressing cells, Fluo-8 calcium influx, capsaicin EC20 potentiation; host cell line not named in the record; control for the full effect not named in the record. 320,000 tested, 0.02% active. potentiation, % at 8.33 µM. AID 540277. Q8NER1; active means potentiation above 80%; inconclusive means 30% to 80%; inactive means below 30%; also: 0% is about no effect
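Fluo-8 calcium influx in TRPV1-expressing cells, kinetic read (ex 480/em 520 nm). Compound added and read 3 min for agonist activity, followed by capsaicin at EC20 final and 2 min further read for enhancement.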
Menin MLL FP FL: inhibitors of human menin-MLL interaction, wild-type MLL peptide. FP activity change, % at 61.4 µM. AID 1766. 290,000 tested, under 10 active. Fluorescence polarization, fluorescein-MLL peptide displacement from menin; inconclusive = falling polarisation curve, or a change in total fluorescence; inactive = total fluorescence flat and polarisation flat or rising; no compound was filed as active; the % refers to the polarisation; negative = inhibition;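 also: % of control where 0% means no effect; inhibitors lower the polarisation; unlabelled MLL peptide was the positive control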
Active calls of the source: *; ? = inconclusive; . = no result given; & = joins results of further samples; [ ] = dose if it differs, or a comment.

SMILES	TRPML1 ag	TRPML1 inh	PINK1 expr mod	ClpP mod	Sfp inh	TRPV1 potentiator	Menin MLL FP FL
Cc1nc2[nH]c(=S)[nH]c(=O)c2nc1C	-0.5	1.4	0.7%	-2.2%	.	.	.
CCCc1nnc2n1N=C(c1ccc(-c3cc(Cl)ccc3Cl)o1)CS2	.	.	.	.	-2.8%	9.8	-1.5
Cc1ccc(NC(=O)c2cn(-c3cccc(C)n3)cn2)cc1	-0.1	-0.8	12.0%	?	14.2%	-28.3	0.3
O=C(COC(=O)c1cccc(Br)c1)NC(=O)NC1CCCC1	-0.1	-7.0	0.3%	.	.	-1.3	.
C=CCNc1ncnc2c1[nH]c1ccc(C)cc12	5.0	14.9	-3.7%[38.3 µM]	15.8µM*	-4.5%	19.7	2.7
COc1ccccc1C(=O)Nc1ccnn1C1CCN(Cc2cnn(C)c2)CC1	-0.2	-2.5	1.5%	-2.9%	0.6%	4.0	.
COc1ccc(NC(=O)CCc2nnc3ccc(NCc4ccco4)nn23)cc1OC	0.9	-6.3	3.3%	.	3.6%	-4.0	.
O=C(NCc1ccc(C(F)(F)F)cc1)c1ccc2c(c1)S(=O)(=O)c1ccccc1C2=O	0.6	-8.4	5.2%	2.4%	.	.	.
COc1ccc(N(C(C)C(=O)NN=C2CCCC2)S(C)(=O)=O)cc1 (stereo not drawn)	0.6	-2.9	2.0%	-0.9%	6.5%	4.9	0.3
Cn1cccc1CC(=O)N/N=C\c1ccccc1	-0.7	-19.6	-0.8%	.	10.5%	-12.6	-0.5
CCC(C)C(=O)Nc1nc(-c2ccc3c(c2)NC(=O)CO3)cs1 (stereo not drawn)	2.2	-8.9	-2.7%	0.6%	5.3%	0.7	-1.6
CCCNC(=O)c1cc(C2CCCCN2C(=O)c2cccs2)on1 (stereo not drawn)	-0.6	.	1.4%	-2.8%	.	.	.
O=C(c1cc(C2CC2)nn1-c1ccccc1)N1CCN(c2ccccc2O)CC1	0.5	-12.3	-1.1%	13.2%	.	.	.
CCn1c(=O)c(C(=O)CN2CCCc3ccccc32)c(N)n(Cc2ccccc2)c1=O	0.2&1.8	-14.2&-21.5	?	-8.2%	-5.3%	12.6&-2.0	3.8
Cc1ccc2nc(N(CCCN(C)C)C(=O)CCc3ccccc3)sc2c1	0.5	-4.3	-4.3%	-0.2%	?	5.8	3.4
O=C(CCNC(=O)c1ccc(Br)o1)NCc1ccccc1Cl	-0.4	0.8	3.5%[38.3 µM]	-0.4%	-19.1%	27.6	-2.8
O=c1[nH]c2ccc(S(=O)(=O)Nc3ccc(Cl)cc3)cc2o1	-0.3	-3.6	-0.4%	0.5%	11.4%	0.8	.
O=C(Nc1cccnc1)c1cccc(NC(=O)c2ccco2)c1	-1.4	-1.4	-1.3%	1.2%	26.6%	18.3	-1.5
COc1ccc(NC(=O)CCS(=O)(=O)c2cccc3nonc23)cc1	0.0	-1.4	2.5%	.	8.9%	-1.1	3.7
Cc1ccc2nc(SCC(=O)N3N=C(c4cccs4)CC3c3ccc(F)cc3)nc(=O)n2c1 (stereo not drawn)	0.0	9.1	3.2%	-2.7%	.	.	.
CCc1cc(=O)oc2cc(OC(=O)c3ccco3)ccc12	-0.4	-10.4	1.0%	4.0%	8.9%	0.9	.
O=C(CCC(=O)N1CCOc2ccc(Cl)cc21)NCCN1CCOCC1	0.1	10.8	-0.1%	-2.8%	11.2%	1.0	0.0
O=C(COC(=O)Cn1c(C(F)(F)F)nc2ccccc21)Nc1ccc2c(c1)OCCO2	-1.1	5.9	2.3%	-11.9%	15.6%	-1.9	1.2
N#C/C(=C\c1cccnc1)C(=O)NC1CCCCC1	1.0	-5.5	-0.5%	1.4%	-14.5%	5.0	6.3
COc1ccc(C2CC(c3cccs3)=NN2C(=O)CSc2nc(=O)n3ccc(C)cc3n2)cc1 (stereo not drawn)	0.6	-10.4	-1.1%	-17.0%	.	27.3	.
COCCNC(=O)c1ccc(-c2ccc(OC)cc2C)c2ccoc12	0.5	.	8.4%	4.2%	.	.	.
CCCC(=O)N1CCN(c2ccc(NC(=O)c3cccs3)cc2)CC1	-1.3	-6.5	4.1%	15.8µM*	-9.2%	-19.4	-2.0
C=CC[C@@H](CC(=O)N(CCO)Cc1ccccc1)C(=O)N[C@H](COC(=O)[C@@H](CC=C)Cc1ccc(F)cc1)c1ccccc1	3.0	16.9	9.1%	1.0%	.	.	.
COc1ccccc1C(=O)NNC(=O)C1CCN(C(=O)OC(C)(C)C)CC1	0.3	1.1	1.0%	-2.6%	15.2%	-7.7	-4.9
COc1ccc(CC(=O)NCc2nnc(SCC(=O)Nc3ccccc3)n2C)cc1	0.3	1.5	1.3%	-0.5%	10.4%	4.0	-2.3
CN(c1ccc(OC(=O)c2ccc(-n3cncn3)c([N+](=O)[O-])c2)cc1)S(=O)(=O)c1ccccc1	-1.0	78.4	0.1%	2.2%	.	-8.4	.
CCOC(=O)c1nn(-c2ccc(Cl)cc2)cc1O	0.8	-14.3	0.7%	-13.3%	21.0%	2.3	4.1
COc1ccc(CN(C(=O)Cn2nnc(-c3ccc(C)o3)n2)C(C(=O)NCC2CCCO2)c2ccco2)cc1 (stereo not drawn)	-0.5	-11.6	1.4%	.	25.3%	-4.4	-0.8
O=C(O)c1[nH]c2ccc([N+](=O)[O-])cc2c1-c1ccccc1	.	.	-1.2%	-0.7%	-2.8%	9.3	-2.6
c1ccc(OCc2nn3c(-c4ccncc4)nnc3s2)cc1	-0.9	-5.2	-0.8%[38.3 µM]	1.2%	-0.6%	6.1	-4.2
CC(C)CCN(Cc1ccco1)C(=O)Cn1ncc2c([nH]c3ccccc32)c1=O	4.6	-23.0	2.1%	?	.	.	.
Clc1ccc2c(N/N=C/c3ccc(Br)cc3)ccnc2c1	-0.5	-22.6	-0.3%	0.1%	?	3.9	3.0
COc1ccc(CN2CCC(C)(Oc3ccc(C(C)=O)cc3)C2)c2ccccc12 (stereo not drawn)	-0.4	.	2.7%	-11.4%	.	.	.
COC(=O)C(C(=O)Nc1ccc(OC)cc1)C1CCCCCC1 (stereo not drawn)	-0.7	-6.4	7.5%	0.9%	7.3%	-4.4	-3.3
O=C(COC(=O)/C=C/c1ccccc1)NC1CCCC1	-0.4	-4.4	0.1%	-2.4%	.	.	.
O=C(NCc1ccc(F)cc1)c1ccc2c(O)c(S(=O)(=O)c3ccccc3)c(=O)[nH]c2c1	0.0	-8.2	-1.7%	?	.	.	.
CCc1nn(CC(=O)NCc2ccco2)c(=O)c2cc3cc(F)ccc3n12	-1.6	-22.2	2.1%	-22.0%	.	.	.
O=C(NC1CCCC1)C1c2ccccc2OCC(=O)N1CCc1ccccc1 (stereo not drawn)	-0.3	.	-0.3%	-4.2%	.	.	.
COc1ccc(C2=NC3(CCCCCC3)N(CC(=O)Nc3ccc(C)c(C)c3)C2=O)cc1	0.8	-7.3	-0.2%	-4.0%	.	.	.
O=C(COc1cccc([N+](=O)[O-])c1)N/N=C/c1ccco1	0.0	-1.8	-1.2%	-1.3%	10.8%	1.6	2.7
COc1cc(C)ccc1S(=O)(=O)N1CCCCCC1	-0.1	2.0	-2.1%	.	9.6%	3.1	2.5
COC(=O)c1c(NC(=O)COc2cccc(C(F)(F)F)c2)sc2c1CCCC2	-0.5	-6.9	3.0%	-3.4%	.	.	.
C=CCNC(=S)/N=c1/ccccn1Cc1ccccc1	-0.2	-14.3	-0.3%	15.2%	-26.9%	-0.7	-0.2
Cc1c(C(=O)N2CCc3ccccc3C2)sc2nc(-c3ccccc3)cn12	1.0	-0.6	6.4%[38.3 µM]	0.3%	6.3%	-8.8	7.3
COc1ccc(NC(=O)c2sc3nc(C)c(C(=O)Nc4ccc(Cl)cc4)c(-c4ccc(Br)cc4)c3c2N)cc1	-0.1	-5.6	0.5%	-1.4%	.	.	.
Remaining list, next part
SMILES	TRPML1 ag	TRPML1 inh	PINK1 expr mod	ClpP mod	Sfp inh	TRPV1 potentiator	Menin MLL FP FL
O=C(NOC(=O)c1cc(Br)ccc1Cl)c1cccs1	-0.8	19.1	-1.0%	-4.9%	12.5%	8.8	2.3
CC1CCc2c(nc3sc4c(c3c2N)CCCC4)C1 (stereo not drawn)	-0.2	7.0	?	.	0.1%	-19.1	8.7
COc1cccc(Cn2c(Oc3cccc(C)c3)nc3c2c(=O)n(C)c(=O)n3C)c1	2.8	12.7	-1.5%	1.1%	?	-3.3	0.9
Cc1ccc(NC(=O)c2ccc([N+](=O)[O-])cc2Cl)nc1	0.4	0.5	0.8%	.	-4.9%	-30.6	2.3
COc1ccccc1OCCOc1ccc(/C=N/n2cnnc2)cc1	-0.6	-6.3	0.1%	-0.7%	-7.3%	21.4	6.4
Cc1ccc(NC(=O)C2CCN(S(=O)(=O)c3ccc(N4CCCC4=O)cc3)CC2)cc1Cl	0.1	1.0	7.4%	.	9.1%	-4.4	.
Oc1ccc2ccccc2c1CN1CC2CCC(CC2)C1	0.7	-3.5	1.9%	.	.	.	.
CCOC(=O)C1=C(C)C(c2ccc(OC)cc2)NC(=S)N1 (stereo not drawn)	1.3	-1.9	-0.1%	0.1%	7.9%	9.9	-2.9
Cc1ccc(S(=O)(=O)/N=S(\C)CC2CC2(Cl)Cl)cc1 (stereo not drawn)	-0.4	-1.4	5.0%[38.3 µM]	-0.9%	9.1%	-2.0	-0.3
COC(=O)c1sc(C(C)(C)C)cc1CSc1ccccc1	0.3	7.3	26.7%	-20.8%	-4.0%	-2.1	-1.4
Nc1nc(SCc2ccccc2Cl)nc2nc3c(cc12)CCCC3	-0.5	3.2	15.4%[38.3 µM]	?	3.3%	-5.3	2.9
COC(=O)C1c2ccccc2-c2ccccc21	2.3	-2.2	-2.7%	.	-0.1%	-24.3	1.7
O=C(CSc1nc2ccccc2c(=O)n1-c1ccccc1)N1CCCc2ccccc21	2.1	57.4	-0.6%	-0.7%	-2.9%	-8.5	-1.5
O=C(O)c1oc2ccccc2c1-n1cccc1	-0.3	-5.9	-0.4%	-1.3%	-1.9%	0.1	0.5
COc1ccc(F)cc1C(=O)C1CCCN(Cc2cn(C)c3ccccc23)C1 (stereo not drawn)	0.4	-4.6	-1.9%	.	3.5%	2.4	-4.9
COc1ccc(C)cc1S(=O)(=O)NNc1nc(C)cc(C)n1	-0.1	3.0	-0.8%	.	.	.	.
CCOc1ccccc1/C=C/c1onc(C)c1S(=O)(=O)N1CCC(C(=O)N2CCCCC2)CC1	1.4	-26.6	0.1%	-0.9%	.	.	.
